Menin MLL FP FL: displaces fluorescein MLL peptide from human menin; Fluorescence polarization, fluorescein-MLL peptide displacement from menin; FP activity change, % at 61.4 µM; 290,000 tested, under 10 active; AID 1766; inconclusive = falling polarisation curve, or a change in total fluorescence; inactive = total fluorescence flat and polarisation flat or rising; no compound was filed as active; the % refers to the polarisation; negative = inhibition;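 note: % of control where 0% means no effect; inhibitors lower the polarisation; unlabelled MLL peptide was the positive control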
ClpP mod: qHTS Assay for Activators of ClpP; ATP-dependent Clp protease proteolytic subunit (Bacillus subtilis (strain 168)), P80244; purified B. subtilis ClpP, FRET peptide cleavage, 20 min; Potency, µM (top dose mostly 57.5 µM), for inactives: top-dose activity change, negative = active; actives 1.9% (n = 340,000); active = well fitted falling curve with a large enough effect; inconclusive = small, poorly fitted or top-dose-only effect; inactive = no such curve, though single readings can be large or run the other way; note: potency is the fitted concentration of half-maximal effect; the source files actives as falling curves though it sought activators and does not explain the sign; nearly all actives have a fitted effect of over 65% in size; many hits overshoot -100%
Target sequence (P80244 whole entry, looked up): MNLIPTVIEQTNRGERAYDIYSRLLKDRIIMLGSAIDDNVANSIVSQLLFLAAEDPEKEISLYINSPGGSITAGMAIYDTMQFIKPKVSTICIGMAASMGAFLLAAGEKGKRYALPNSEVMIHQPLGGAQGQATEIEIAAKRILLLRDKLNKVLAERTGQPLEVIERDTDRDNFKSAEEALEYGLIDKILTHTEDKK
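FRET quenching reversal measured ClpP activation: 10 microg/mL B. subtilis ClpP at pH 8 with the FRET-FV decapeptide, read at 430 nm after 320 nm excitation. The 20-min minus 0-min signal was scaled between DMSO/no-enzyme wells and ADEP (5.8 microM final).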
gsp ag: activates gsp, the McCune-Albright syndrome mutation; gsp mutant cells, cAMP HTRF, 30 min; control for the full effect not named in the record; Potency, µM (highest dose often 76.9 µM), inactives show at the highest dose activation (cAMP increase), usual class: activators; actives 0.13% (n = 340,000); active = well fitted activation curve with a large enough effect; inconclusive = small, poorly fitted or top-dose-only effect, or another doubt; inactive = no such curve, though single readings can be large or run the other way; cell line not stated here;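 note: phosphodiesterase inhibitor Ro 20-1724 added with compounds to block cAMP breakdown; potency is the fitted concentration of half-maximal effect; nearly all actives have a fitted effect of over 60% in size; about a fifth of the inactives were tested at one dose only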
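Cells in DMEM/10% FBS with G418 were pretreated with compounds in DMSO plus […] (300 uM stock) for 30 min at 37C. cAMP was measured by HTRF (cAMP-d2 plus anti-cAMP antibody-K) after 30 min at room temperature.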
TRPV1 PAM: potentiators of human vanilloid receptor 1 (TRPV1); TRPV1-expressing cells, Fluo-8 calcium influx, capsaicin EC20 potentiation; host cell line not named in the record; control for the full effect not named in the record; Q8NER1; actives 0.02% (n = 320,000); potentiation, % at 8.33 µM; active means potentiation above 80%; inconclusive means 30% to 80%; inactive means below 30%; note: 0% is about no effect
Target sequence (Q8NER1 whole entry, looked up): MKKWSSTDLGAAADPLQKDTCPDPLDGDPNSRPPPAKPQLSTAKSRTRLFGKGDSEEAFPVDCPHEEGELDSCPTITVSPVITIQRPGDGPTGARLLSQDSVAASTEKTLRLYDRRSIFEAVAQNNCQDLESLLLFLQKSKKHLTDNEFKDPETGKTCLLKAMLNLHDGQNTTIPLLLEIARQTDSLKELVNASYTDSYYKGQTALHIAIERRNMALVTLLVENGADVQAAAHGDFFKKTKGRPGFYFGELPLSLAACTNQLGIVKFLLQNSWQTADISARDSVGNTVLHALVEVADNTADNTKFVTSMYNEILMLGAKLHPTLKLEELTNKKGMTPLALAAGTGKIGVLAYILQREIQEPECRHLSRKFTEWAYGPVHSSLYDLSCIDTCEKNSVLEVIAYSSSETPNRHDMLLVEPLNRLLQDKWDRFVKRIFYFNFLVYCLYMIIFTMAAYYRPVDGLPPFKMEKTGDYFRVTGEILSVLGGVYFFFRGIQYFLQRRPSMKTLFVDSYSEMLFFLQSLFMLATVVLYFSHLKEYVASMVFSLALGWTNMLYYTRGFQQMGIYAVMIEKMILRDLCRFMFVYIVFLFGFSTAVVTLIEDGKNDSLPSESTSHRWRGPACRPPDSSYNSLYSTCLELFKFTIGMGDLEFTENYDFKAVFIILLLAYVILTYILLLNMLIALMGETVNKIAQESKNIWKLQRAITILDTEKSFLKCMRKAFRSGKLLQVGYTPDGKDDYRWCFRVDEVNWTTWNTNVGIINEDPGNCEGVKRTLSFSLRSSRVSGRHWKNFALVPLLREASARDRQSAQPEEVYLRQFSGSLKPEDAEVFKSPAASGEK
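Cells expressing TRPV1 were dye-loaded with Fluo-8 and read kinetically: 10 s baseline, 3 min after compound (agonist portion), then 2 min after EC20 capsaicin (allosteric enhancer portion). Calcium-bound dye fluorescence at 480/520 nm.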
CtBP-E1A blk: CtBP/E1A binding inhibition. AlphaScreen GST-E1A/His-CtBP binding, 1536-well; active compounds read low; control for the full effect not named in the record. activity change, % (concentration not given with the values). actives 0.49% (n = 340,000). AID 651724; in the data active means activity change below about -65%; inconclusive means about -30% to -65%; inactive means above about -30%; note: % is set by controls: 0 for no effect and ±100 for the full control effect
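In 5 uL wells, 23 nL compound meets equimolar GST-E1A and His-CtBP (5X stock 125 nM each) for 2 h, 37 °C. Beads (5X, 50 ug/mL) then 1 h, 37 °C, dark.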
Sfp PPTase inh: inhibitors of Bacillus subtilis Sfp phosphopantetheinyl transferase; Biochemical Sfp PPTase activity, qHTS; Potency, µM, for the others: max response, negative = inhibition, most hits filed as inhibitors; actives 3.5% (n = 310,000); AID 1490; active = well fitted inhibition curve with a large enough effect; inconclusive = small, poorly fitted or top-dose-only effect, or another doubt; inactive = no such curve, though single readings can be large or run the other way;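 note: the enzyme is Sfp with the accession as filed and its product quenches rhodamine fluorescence; potency is the fitted concentration of half-maximal effect; 0% = enzyme reaction without inhibitor and -100% = no enzyme wells; top concentration of the series not given in the record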
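After 15 min at room temperature with compound, 15 nM Sfp received 5 uM rhodamine-CoA plus 12.5 uM BHQ-2-ybbR (50 mM Hepes pH 7.6, 10 mM MgCl2). Rate came from the fluorescence difference over 30 min, ex 525/em 598 nm.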
gsp antag: antagonists of gsp mutant (McCune-Albright syndrome). gsp-mutant cells, cAMP HTRF, 30 min; control for the full effect not named in the record. Potency, µM (highest dose often 76.9 µM), for the others: top-dose activity change, negative = inhibition, most hits filed as inhibitors. actives 0.4% (n = 340,000); active = falling curve of any shape with a large fitted effect; inconclusive = falling curve, mostly with a smaller effect; inactive = flat or rising curve; cell line not stated here;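 note: intracellular cAMP measured with PDE inhibitor Ro 20-1724 present during compound exposure; potency is the fitted concentration of half-maximal effect; % is set by controls: 0 for no effect and ±100 for the full control effect; nearly all actives have a fitted effect of over 65% in size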
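Measurement of cellular cAMP by homogeneous time-resolved fluorescence following a 30 min compound exposure at 37C. The PDE inhibitor […] was present throughout; the assay buffer was DPBS with 0.05% BSA and 0.005% Tween 20.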
Starred values were filed as active, the others as inactive; ? = inconclusive; . = not tested or not shown; [ ] = another dose, or the depositor's remark.

Every second line gives: Menin MLL FP FL	ClpP mod	gsp ag	TRPV1 PAM	CtBP-E1A blk	Sfp PPTase inh	gsp antag
> CCN(CC)Cc1c(O)ccc2c1O/C(=C\C=C\c1ccccc1)C2=O
  ?	-1.4%	27%	3	-2	4%	-45%
> COC(=O)C1=C(C)N(Cc2ccccc2)C(=NCCCCO)N[C@H]1c1cccc(C(F)(F)F)c1
  -1.2	-1.7%	8%	2	-1	5%	14%
> O=C(Nc1cccnc1)C1OCCc2ccccc21 (stereo not given)
  -0.8	-3.3%	-22%	-1	-1	11%	5%
> COC1=C(c2ccccc2)C(=O)c2ccccc2C1=O
  8.0	.	-3%[15.4 µM]	4	?	3%	8%
> O=C(c1ccco1)N1CCN(C(=S)Nc2ccccc2Cl)CC1
  .	-2.5%	6%	-4	5	19%	8%
> O=C(NCCc1ccc(Cl)cc1)C1CCN(S(=O)(=O)c2ccc(-n3cnnn3)cc2)CC1
  -1.0	0.7%	-31%[inhibitor]	8	7	24%	-14%
> CC(C)NC(=O)Nc1ccc2c(c1)C(=O)N([C@H](C)CO)C[C@H](C)[C@@H](CN(C)S(=O)(=O)c1ccccc1)OCCCC[C@@H](C)O2
  .	0.5%	4%	.	1	.	.
> O=C(O)CNC(=O)/C=C/c1ccc(Cl)cc1Cl
  5.8	-2.1%	-1%	10	-4	3%	1%
> C[C@H](CO)N1C[C@H](C)[C@@H](CN(C)C(=O)Nc2ccccc2)Oc2c(NS(=O)(=O)c3cn(C)cn3)cccc2C1=O
  .	-14%	?	.	-9	.	-4%
> CC(=O)c1cccc(NS(=O)(=O)c2c(C(=O)N3CCOCC3)c(C)n(C)c2C)c1
  -1.1	-0.1%	-6%	4	5	7%	0%
> CCOc1ccc(NC(=O)N(CCN(C)C)C(C)c2cccnc2)cc1 (stereo not given)
  1.0	0.6%	2%	-15	0	6%	6%
> CC(C)c1ccc(NC(=O)C(c2ccccc2)N2CCN(C(=O)c3ccco3)CC2)cc1 (stereo not given)
  1.5	-0.8%	2%	?	-2	-10%	-13%
> CCOC(=O)C1=C(C)N=c2s/c(=C\c3ccc(OC(C)=O)c(OCC)c3)c(=O)n2C1/C=C/c1ccccc1 (stereo not given)
  ?	-1.6%	7%	0	-12	45µM*	-12%
> N#CC1(Nc2ccc3c4c(cccc24)CC3)CCCCC1
  .	3.9%	6%	.	-3	.	.
> c1ccc(Oc2cc(-n3cccn3)ncn2)cc1
  1.6	-2.5%	10%	-2	4	-5%	2%
> COC(=O)C1=C(C)OC(N)=C(C#N)C1c1ccccc1 (stereo not given)
  1.0	-1.4%	1%	0	9	0%	-4%
> CC(Sc1nc(N)cc(=O)[nH]1)C(=O)N1CCOCC1 (stereo not given)
  .	1.4%	-2%[15.4 µM]	13	3	.	6%
> CCCn1c(N)c(C(=O)COC(=O)c2c(C)noc2C)c(=O)n(C)c1=O
  0.6	1.5%	5µM*	5	-8	-10%	8%
> Cc1cccc(NC(=O)CSc2ncnc3sc(C)cc23)c1
  -0.9	.	1%	-8	-8	12%	-15%
> O=C1OCCN1C(=O)[C@H]1[C@H](c2ccc(Cl)cc2)C(c2ccc(F)cc2)=NN1c1ccccc1
  25	4.0%	.	.	27	22%	-13%
> O=C(N/N=C/C1CC2C=CC1C2)c1ccccc1O (stereo not given)
  0.2	-10%	-10%	-27	-10	1%	4%
> Cc1cc(-n2cnnn2)ccc1C(C)C
  1.4	.	-22%	?	1	14%	8%
> COc1ccc(C2=NOC(C(=O)Nc3cccnc3)C2)cc1OC (stereo not given)
  -29	.	8%[15.4 µM]	3	0	7%	3%
> O=C(CN1C(=O)c2ccccc2S1(=O)=O)NC(Nc1ccccc1F)C(Cl)(Cl)Cl (stereo not given)
  -5.7	.	-18%	-4	1	18%	-24%
> Cc1ccc(S(=O)(=O)NC(=O)c2cccc(N(C)C)c2)cc1
  .	-19%	12%	.	0	.	-5%
> O=C(O)CC12CC3CC(C1)CC(n1ncc(NCc4ccccc4Cl)c(Cl)c1=O)(C3)C2
  3.7	-2.0%	-9%	-4	-4	-17%	1%
> CN(CCNC(=O)C1CC(=O)N(c2ccc(F)c(Cl)c2)C1)Cc1ccccc1 (stereo not given)
  6.9	1.7%	-2%	0	-4	14%	2%
> Clc1ccc(-c2nc(CSc3ccccn3)cs2)cc1
  .	-16%	?	.	2	.	.
> Cc1ccc(C)c(NC(=O)COC(=O)CNC(=O)C2CCCCC2)c1
  .	-1.0%	3%[15.4 µM]	-2	2	.	-4%
> COc1ccccc1CN(C)CC(=O)NC1CCCc2ccccc21 (stereo not given)
  -0.1	.	23%	-5	5	16%	-2%
> CCOC(=O)N1CCN(c2c(NCc3ccccc3OC)c(=O)c2=O)CC1
  1.8	0.5%	-26%	7	-18	-1%	-10%
> Cc1cc(Br)ccc1NC(=O)CNC(=O)CN1C(=O)NC2(CCCCCC2)C1=O
  2.5	-1.7%	16%	-6	5	-9%	0%
> O=C(NCc1ccccc1)NC(=O)c1ccccc1F
  -1.8	-0.2%	19%	-12	10	3%	2%
> CC(NC(=O)CCCC1CCCCC1)c1ccc(S(N)(=O)=O)cc1 (stereo not given)
  2.5	.	27%[15.4 µM]	-18	5	12%	5%
> C[C@H](CO)N1C[C@H](C)[C@H](CN(C)C(=O)c2cc(-c3ccccc3)on2)OCc2cnnn2CCCC1=O
  .	0.5%	-4%	.	-11	.	.
> CC(NC(=O)NC1CCCCC1)c1ccccc1 (stereo not given)
  5.8	-1.4%	1%	-4	7	10%	?
> CN1C(=O)/C(=C/c2ccc(OCc3ccc(C(=O)O)cc3)c(Cl)c2)NC1=S
  2.1	-0.1%	-3%[15.4 µM]	-6	-6	13%	-21%
> CCOC(=O)N1CCC(N2C(=O)c3ccccc3C2Nc2cc(C)cc(C)c2)CC1 (stereo not given)
  4.4	.	9%[15.4 µM]	-3	-4	4%	-21%
> COc1ccc(Br)c(C(=O)Nc2cccc(Cl)c2Cl)c1
  8.1	0.4%	48%	-1	13	-7%	17%
> CC(=O)c1nc(-c2ccccc2)sc1C
  -1.1	-1.1%	27%	8	9	20%	-5%
> O=C(CSc1nc2ccccc2c(=O)n1Cc1ccco1)N1CCCCCC1
  0.8	2.4%	?	0	5	?	-10%
> O=C(C[n+]1ccccc1)N/N=C/c1cccs1
  1.2	.	-22%	-5	?	25%	9%
> COCCCNC(=O)[C@H]1N2C(=O)c3ccccc3C2SC1(C)C (stereo not given in full)
  4.3	.	-1%	-7	10	56µM*	1%
> Cc1cc(NC(=O)COc2cccc(Oc3ccccc3)c2)no1
  0.9	-2.7%	8%	-10	-11	0%	6%
> CC(C)C1C(=O)N(Cc2cn(CCC3OCCCO3)nn2)CCS(=O)(=O)N1Cc1ccc(-c2cccc(CO)c2)cc1 (stereo not given)
  .	2.1%	-5%	.	5	.	.
> Cc1ccc(NC(=O)CN2C(=O)N/C(=C/c3ccccc3OCc3cccc(C(=O)O)c3)C2=O)cc1
  -0.3	.	4%[15.4 µM]	-21	-1	89µM*	-9%
> CN(C)CCOC1c2ccccc2-c2ccccc21
  -11	-0.3%	-11%[15.4 µM]	2	11	-13%	11%
> COc1ccc(C(C)=O)cc1CN1C(=O)NC2(CCCC2)C1=O
  1.7	0.6%	14%	-3	7	22%	13%
> C/C(=N\NC(=S)Nc1ccc(C)c(C)c1)c1ccc(N2CCOCC2)cc1
  1.0	?	2%	13	?	2%	-15%
> C/C(=N/NC(=O)CCc1c(C)n[nH]c1C)c1cccc([N+](=O)[O-])c1
  -4.1	0.2%	-8%	-10	.	20%	3%
> CC(=O)Nc1ccc(S(=O)(=O)CC(=O)CS(=O)(=O)c2ccc(NC(C)=O)cc2)cc1
  .	-2.5%	27%	.	-8	.	.
> CC(C)CC(=O)/C=C/n1c(=S)oc2ccccc21
  0.7	1.6%	-7%	-4	-2	10%	8%
> O=C(C1CCN(S(=O)(=O)c2cccc3nonc23)CC1)N1CCCCC1
  5.8	.	-33%[inhibitor]	5	9	20%	4%
> N=c1c(C(=O)NCc2ccc(F)cc2)cc2c(=O)n3ccccc3nc2n1CC1CCCO1 (stereo not given)
  4.8	-8.2%	?	-21	-14	7%	4%
> CNC(C)C#Cc1ccc2c(=O)c3cc(C)c(C)cc3oc2c1 (stereo not given)
  .	3.2%	.	.	-1	.	-13%
> O=C(CN1C(=O)c2ccccc2C1=O)Nc1ccccc1
  0.3	-3.0%	-42%[inhibitor]	4	.	21%	5%
> O=C1NCCCC1C(=O)N1CCN(C(=O)c2ccco2)CC1 (stereo not given)
  3.6	0.1%	-7%	9	4	11%	-1%
> COc1ccc2[nH]c(CN3CCN(CC(C)C)C(CCO)C3)c(C)c2c1 (stereo not given)
  -18	0.7%	-19%[15.4 µM]	-2	-2	-24%	-11%
> O=C(COc1ccccc1F)Nc1ccc2[nH]c(=O)[nH]c2c1
  .	1.6%	3%[15.4 µM]	9	2	.	2%
> CN(C)C(=O)c1ccc(NC(=O)COC(=O)CCN=C2NS(=O)(=O)c3ccccc32)cc1
  .	-2.6%	-14%	.	7	.	15%

Going on with the list.
Every second line gives: Menin MLL FP FL	ClpP mod	gsp ag	TRPV1 PAM	CtBP-E1A blk	Sfp PPTase inh	gsp antag
> Cc1ccc(NC(=O)CSc2nn(-c3ccccc3)c(=S)s2)cc1S(=O)(=O)N(C)C
  2.7	-3.0%	13%	10	0	8%	?
> C/C=C/c1ccc(OCCCCN2C(=O)NC(C)(C)C2=O)c(OC)c1
  -0.1	-0.6%	5%	-3	0	8%	-2%
> COc1ccccc1-c1nnc2sc(-c3ccc(N(C)C)cc3)nn12
  2.9	25µM*	11%	17	2	9%	14%
> Cc1ccc(-c2nnc(-c3cccc4ccccc34)o2)cc1
  .	-20%	-3%[15.4 µM]	.	0	.	9%

Part of the list above in another layout.
| Compound | Menin MLL FP FL | ClpP mod | gsp ag | TRPV1 PAM | CtBP-E1A blk | Sfp PPTase inh | gsp antag |
| --- | --- | --- | --- | --- | --- | --- | --- |
| C/C=C/c1ccc(OCCCCN2C(=O)NC(C)(C)C2=O)c(OC)c1 | -0.1 | -0.6% | 5% | -3 | 0 | 8% | -2% |
| Cc1ccc(-c2nnc(-c3cccc4ccccc34)o2)cc1 | . | -20% | -3%[15.4 µM] | . | 0 | . | 9% |

Screening results deposited in PubChem by National Center for Advancing Translational Sciences (NCATS).
